Bioassay records from PubChem.
Sa helicase inh: inhibitors of S. aureus replicative helicase, primary screen, biochemical, fluorescence unwinding readout | replicative DNA helicase (DnaC/DnaB), Staphylococcus aureus | purified S. aureus helicase, fluorescence unwinding assay; about half of the hits fall short of the stated cut | inhibition, %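 (tested at about 80 µM)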 | actives 0.05% (n = 120,000);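 active means both duplicates at 50% or more, or one of them with a favoured structure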;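 further: 0% = mean of negative control wells and 100% = mean of positive control wells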
MgrA-DNA mod: S. aureus MgrA activity modulators, primary screen, biochemical, S. aureus Newman, fluorescence polarization; actives 0.13% (n = 84,000); AID 602314, 2012; MgrA-DNA binding; inhibition, %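 (about 10 µg/mL by stock and volumes)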;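 active means above 50% in either of two replicates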;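 further: 0% = protein plus DNA without compound and 100% = DNA alone without protein; higher means less MgrA bound to DNA so lower polarization; one replicate is shown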
Starred values were filed as active, the others as inactive; . = no result given; & = joins results of further samples.

SMILES	Sa helicase inh	MgrA-DNA mod
O=C(O)CSc1ccc2ccccc2c1Br	18	.
O=C(COC(=O)c1n[nH]c2ccccc12)NC1CCCCC1	-19	-2.1
COC(=O)CSc1nc(C)cc(Oc2ccccc2)n1	4	.
COC(=O)CCS(=O)(=O)c1ccc2ccccc2c1	0	.
CC(=O)Nc1cccc(-c2nc3ccccc3o2)c1	3	3.9
CCOc1ccc(Br)cc1/C=C1\SC(=S)NC1=O	.	0.2
CCN=C(N)SCc1c(C)c(C)c(C)c(C)c1C	.	4.5
O=C(NC1C=CS(=O)(=O)C1)c1ccccc1 (stereo unspecified)	2	.
CCOCCCNc1ccc(-c2ccccc2)nn1	2	-0.5
CNS(=O)(=O)c1cccc(C(=O)N2CCN(C/C=C/c3ccccc3)CC2)c1	-13	.
O=C(O)c1ccc(COc2ccccc2)o1	12	-1.1
CC(C)(C)C(=O)Oc1ccccc1OC(=O)c1ccccc1	-12	-2.5
Cc1ccc(NC2CC(C)N(C(=O)c3cccc(F)c3)c3cc(C)ccc32)cc1 (stereo unspecified)	.	-1.4
CC1CCCC(C)N1NC(=S)Nc1ccccc1 (stereo unspecified)	14	-2.1
Cc1nn(-c2ccccc2)c2sc(C(=O)N(C)C(C)C(O)c3ccccc3)cc12 (stereo unspecified)	-15	-3.0

Compound profiles, from the list above. Order of values: Sa helicase inh | MgrA-DNA mod
CCOCCCNc1ccc(-c2ccccc2)nn1 is listed with 2 | -0.5
CC1CCCC(C)N1NC(=S)Nc1ccccc1 (stereo unspecified) is listed with 14 | -2.1
O=C(O)c1ccc(COc2ccccc2)o1 is listed with 12 | -1.1
CNS(=O)(=O)c1cccc(C(=O)N2CCN(C/C=C/c3ccccc3)CC2)c1 is listed with -13 | .
CC(C)(C)C(=O)Oc1ccccc1OC(=O)c1ccccc1 is listed with -12 | -2.5

New compounds follow.
SMILES	Sa helicase inh	MgrA-DNA mod
Cc1ccc2[nH]c(=O)nc(-c3ccccc3)c2c1	9&11	-1.5
FC(F)(F)c1ncncc1-c1nnnn1-c1ccccc1	.	0.0
Cn1cccc1C(C(=O)NC1CCCCC1)N(C(=O)Cc1cccs1)c1ccccc1 (stereo unspecified)	5	-3.4
COC(=O)/C=C/C1=C(N)c2ccccc2C1(C#N)c1ccccc1 (stereo unspecified)	.	-0.5
CC(=O)Nc1ccc(C(=O)CSc2ncn(-c3ccccc3)n2)cc1	3	1.8
O=C(CC1(c2ccc(Cl)cc2)C(=O)c2ccccc2C1=O)N1CCCCC1	15	0.0
C#CCOC(=O)Nc1cc(C)n(-c2ccccc2)n1	-6	.
O=C(CC1S/C(=N\N=C2CCCCCCC2)NC1=O)Nc1ccccc1 (stereo unspecified)	29	5.7
CCOC(=O)c1ccc2[nH]c3c(c2c1)CCCC3C(=O)OCC (stereo unspecified)	5	-1.4
Cc1ccc(NC(=O)CCC2CC(C)(C)OC2=O)cc1 (stereo unspecified)	-5	.
S=C1Nc2cccc3cccc(c23)N1	6	.
Cc1noc(C)c1C(=O)N(C(C)C)C(C)C	.	-5.7
Oc1ccccc1-c1cc(-c2ccc3c(c2)OCO3)cc(-c2ccccc2)n1	-7	3.1
O=C(Nc1cc(Cl)cc(Cl)c1)c1cc(S(=O)(=O)N2CCCc3ccccc32)ccc1F	1	-0.1
OC(c1ccc(Br)cc1)C12CN3CN(CN(C3)C1)C2 (stereo unspecified)	0	-0.3
Cc1ccccc1NC(=O)Cn1c(=O)n(C2CCCCC2)c(=O)c2cccnc21	-21	.
O=C(NCc1ccco1)c1ccc(CSc2nc3ccncc3n2Cc2ccccc2)cc1	-22	.
COc1ccccc1NC1CCCCC1NS(=O)(=O)c1ccccc1 (stereo unspecified)	14	-2.1
O=C(CN1CC(=O)Nc2ccccc21)Nc1ccc(S(=O)(=O)N2CCCC2)cc1	9	.
CCOc1ccc(OCc2ccc(C(=O)NCc3cccnc3)o2)cc1	33	.
CC(C)(C)NC(=O)c1sccc1C(=O)O	7	0.7
O=C(O)/C=C/c1ccc(Cl)cc1	-2	0.3
Cc1ccccc1-c1nnc(SC(C)C)o1	6	.
CCOc1cc(C)c(Cl)cc1S(=O)(=O)n1nnc2ccccc21	23	-1.9
O=C(O)CSc1nnc2c(n1)[nH]c1ccccc12	0	-4.9
O=C(/C=C/Nc1ccccc1F)c1cccs1	13	0.2
COC(=O)C1C(=O)CC(C)(O)C(C(=O)OC)C1c1ccccc1 (stereo unspecified)	16	8.8
COC(=O)C(CC(C)C)NC(=O)c1ccc(OC(C)=O)cc1 (stereo unspecified)	5	2.9
CC1(C)CC(=O)C2=C(C1)Nc1ccccc1N(C(=O)c1ccccc1)C2c1ccc2c(c1)OCO2 (stereo unspecified)	.	-1.3
O=C(CCc1nc2cccnc2n1Cc1cccs1)Nc1ccc2c(c1)OCCO2	-30	.

Entries from the list above containing an NH in an aromatic ring (4):
SMILES	Sa helicase inh	MgrA-DNA mod
O=C(COC(=O)c1n[nH]c2ccccc12)NC1CCCCC1	-19	-2.1
Cc1ccc2[nH]c(=O)nc(-c3ccccc3)c2c1	9&11	-1.5
CCOC(=O)c1ccc2[nH]c3c(c2c1)CCCC3C(=O)OCC (stereo unspecified)	5	-1.4
O=C(O)CSc1nnc2c(n1)[nH]c1ccccc12	0	-4.9

3 neighbouring compounds already listed:
SMILES	Sa helicase inh	MgrA-DNA mod
O=C(O)CSc1ccc2ccccc2c1Br	18	.
O=C(COC(=O)c1n[nH]c2ccccc12)NC1CCCCC1	-19	-2.1
COC(=O)CSc1nc(C)cc(Oc2ccccc2)n1	4	.

Later entries.
SMILES	Sa helicase inh	MgrA-DNA mod
CC(C)C(NS(=O)(=O)c1ccc2c(c1)C(C)(C)C(=O)N2C)C(=O)NCc1ccc(F)cc1 (stereo unspecified)	5	2.4
CC(=O)n1cc(/C=C2\N=C(c3ccccc3C)OC2=O)c2cc(Br)ccc21	.	0.1
CCC1=C(c2ccc(C)cc2)S(=O)(=O)N=C1N1CCC(C(=O)NC2CC2)CC1	15	.
Cc1ccc(-c2onc3ccc(C(=O)O)cc23)cc1	31	.
Cc1ccccc1NC(=O)c1[nH]cnc1C(=O)NN	28	.
COc1ccc(CN2C(=O)c3cccnc3C2=O)cc1S(=O)(=O)NCc1ccc(C)cc1	6	.
N#Cc1cc2ccc(O)cc2oc1=N	-237	8.9
COc1ccc(NC(=S)NCC2CCCO2)cc1 (stereo unspecified)	7	4.9
Cc1ccc(S(=O)(=O)N2CCOC2=O)cc1	19	0.6
COc1cc2ccccc2cc1C(=O)OCC(=O)NC1CC1	-1	0.8
NNC(=O)c1cc(COc2c(Cl)cccc2Cl)on1	.	-2.5
Cc1cccc(C)c1NC(=O)Cn1c(-c2ccc3c(c2)OCO3)cn(-c2ccccc2)c1=O	13	.
Nc1nc2c3ccccc3nc(C3CC3)n2n1	26	.
CCN1CCCC1CNC(=O)c1ccccc1Oc1ccccc1 (stereo unspecified)	1	.
COC(=O)CSc1nc2sc3c(c2c(=O)n1-c1ccccc1)CC(C)(C)OC3	.	-0.6
CC1(C)COC(=O)C1OC(=O)c1ccccc1C(=O)O (stereo unspecified)	5	.
Brc1ccc(OCc2nnc3n2CCC3)cc1	-24	-3.8
S=C(NCCN1CCOCC1)Nc1ccc(Cl)cc1	12	3.7
S=C(NCc1cccnc1)Nc1ccccc1Cl	.	-0.3
Cc1cc(C(=O)CCC(=O)O)ccc1F	0	-3.0
COC(=O)Cn1cc(C(=O)OC)c2ccccc21	-1	0.2
O=C1Nc2ccccc2C(=O)C1=Ic1ccccc1	.	20
c1ccc(-c2nnc(N3CCCC3)nc2-c2ccccc2)cc1	.	0.0
CC1=CC(C)C(C2OC(C)C(C)O2)C(C)C1 (stereo unspecified)	5	-4.1
Cc1ccc(N=C2SC(C(=O)Nc3cccc(C#N)c3)C(N)=C2C(=O)N2CCCC2)c(C)c1 (stereo unspecified)	21	.
CN(C)C(=O)COC(=O)c1ccc(-c2ccc(C(=O)OCC(=O)N(C)C)s2)s1	-7	.
O=C(NNc1ccccc1C(F)(F)F)c1cccs1	0	.
FC(F)(F)c1ccc(-c2nn[nH]n2)cc1	.	-1.2
CC(=O)Nc1nc(CC(C)C)cc(-c2ccco2)c1C#N	13	.
Nc1ccc(NS(=O)(=O)c2ccccc2)cc1	-1	0.3
Cn1c2ccccc2c2c(C(=O)NCc3ccco3)cn(C3CCCCC3)c(=O)c21	42	.
Cc1onc(-c2ccccc2Cl)c1C(=O)N1CCN=C1SCc1ccccc1F	6	.
CNc1ccc(O)cc1	28	31
O=C(O)c1[nH]c2ccccc2c1C=NCc1ccccc1Cl	8	0.0
CCOC(=O)Cn1c(=O)c(-c2nc(C(C)(C)C)cs2)cn(C(C)C)c1=O	-23	.
O=C1OCCC1Sc1nc2ccccc2[nH]1 (stereo unspecified)	2	.
O=C(CSc1cccc[n+]1[O-])N1c2ccccc2Sc2ccccc21	-3	-1.3
COc1cccc(C(=O)Nc2c3c(nn2-c2ccc(C)cc2)CS(=O)C3)c1 (stereo unspecified)	20	.
CC(=O)N1CC(=O)N/C(=C\c2cccnc2)C1=O	1	.
CCOC(=O)N1CCN(C(=O)C(C)(C)Oc2ccc(Cl)cc2)CC1	9	.
O=c1ccc(-c2ccc(S(=O)(=O)Nc3ccccc3)s2)n[nH]1	21	.
CN(CCc1ccccn1)C(=O)c1cc(-c2cccs2)nc2ccccc12	-17	-0.7
Cc1cc(C)nc(NCCC(=O)O)n1	12	0.3
COc1ccc2nc(Cl)c(C#N)cc2c1	-6	.
CC(=O)Nc1nonc1Nc1csc(CC#N)n1	-1	0.6

A few values from the results shown.
Cc1cc(C)nc(NCCC(=O)O)n1 in Sa helicase inh reads 12
CN(CCc1ccccn1)C(=O)c1cc(-c2cccs2)nc2ccccc12 in MgrA-DNA mod reads -0.7

More structures follow:
SMILES	Sa helicase inh	MgrA-DNA mod
Cc1cccc(-c2noc(CN(C(=O)c3ccc(Br)o3)C(C)C)n2)c1	-13	.
Cc1c(C(=O)O)[nH]c2c1/C(=N/N1CC(=O)NC1=O)CC(C)(C)C2	12	.
CCN(CC(=O)NCc1ccc2c(c1)OCO2)S(=O)(=O)c1ccc(F)cc1	5	-0.6
CCCc1nnc(NC(=O)c2ccccc2)s1	10	-1.8
O=C(NCc1ccncc1)C12CC3CC(CC(C3)C1)C2	-4	.
Cc1ccc(-n2ncc3c(NC4CCCCC4)ncnc32)c(C)c1	10	.
CC(C)OC(=O)CSc1nc(N)c(C#N)cc1C#N	13	0.5
COc1ccc(/C=C/C(=O)NCc2ccco2)cc1OC	-19	4.9
CCCCn1c(SCC(=O)OC)nc2ccccc2c1=O	10	0.2
COc1cccc(C(=O)Nc2ccccc2Cl)c1	2	-5.8
COc1cc(OC)c(NC(=O)Cn2ncc3c(=O)oc4ccc(C)cc4c32)cc1Cl	12	.
CCCNC(=O)CN=C1NS(=O)(=O)C(c2ccc(C)cc2)=C1CC	5	.
COC(=O)c1ccc(Oc2coc3cc(O)ccc3c2=O)cc1	8	.
CN(C)c1ccc(C2=CC(C3CC3)=C(C#N)C(=C(C#N)C#N)N2)cc1	-1	.
N#CCCn1cc(C(=O)CSc2nnc(-c3ccccc3Cl)n2C2CCCC2)c2ccccc21	-2	.
CCOc1ccccc1NC(=O)COC(=O)c1cc(Cl)ccc1Cl	-2	1.1
CCOC(=O)Cn1c(=O)c(-c2cc(Br)ccc2NC)nc2cc3ccccc3cc21	.	-1.5
O=C1C(Sc2ncn[nH]2)=C/C(=N/S(=O)(=O)c2ccc(F)cc2)c2ccccc21	-15	.
CC(=O)OCc1c(C)c(C)c(C)c(C)c1C	.	-1.1
O=C(COc1ccccc1F)NCCc1ccc2c(c1)OCCO2	10	.
COc1cc(/C=C2\C(=O)NC(=S)N(c3ccc(Cl)cc3)C2=O)cc([N+](=O)[O-])c1O	.	48
Cc1cc(NC(=O)CSCC(=O)N2CCN(c3ccccc3)CC2)no1	7	.
C=CCSc1nc(O)c(CC)c(=O)n1-c1ccccc1	14	0.2
O=C(O)CCN1C(=O)/C(=C\c2ccccc2)SC1=S	-20	.
Oc1ccc(CN2CCN(c3ccc(F)cc3)CC2)c2cccnc12	17	.
COC(=O)C(CC(C)C)NC(=O)c1cc(-c2ccccc2)nc2ccccc12 (stereo unspecified)	3	2.4
S=c1nc(-c2ccc(Cl)cc2)[nH][nH]1	.	-1.5
Cc1ccc(/C=N/NC(=O)CCc2c(C)n[nH]c2C)cc1	11	.
Cc1ccc2cc(NC(=O)c3ccccc3)ccc2n1	.	1.4
N#Cc1ccc(-c2ccc3c(c2)OCCO3)[nH]c1=S	.	8.9
CSc1nc(N)nc(-c2ccccn2)n1	.	-3.1
CC1CN(C(=O)C(C)OC(=O)c2ccc(-c3ccccc3)cc2)CC(C)O1 (stereo unspecified)	-2	.
CC(NC(=O)Nc1cccc(Cl)c1Cl)c1ccc2c(c1)OCO2 (stereo unspecified)	10	-8.7
CC(C)(COC(=O)c1ccccc1)N=C1NS(=O)(=O)c2ccccc21	-7	0.3
O=C(COc1ncnc2sccc12)N1CCCCC1	-12	.
COc1ccc(CC(=O)Nc2ccc(O)c(-c3nc4ccccc4o3)c2)cc1	7	1.1
COc1ccc(CN(Cc2cc(OC)c(OC)c(OC)c2)C(=O)C(C)(C)C)cc1	.	1.0
COc1ccc(Nc2nc(N)nc(CN3CC(C)CC(C)C3)n2)cc1 (stereo unspecified)	38	.
O=C(Cn1ncc2c3ccccc3n(Cc3ccccc3)c2c1=O)NC1CC1	11	0.0
O=C(O)CCCC(=O)Nc1ccccc1SCc1noc(-c2cccs2)n1	.	1.9
O=C(NCC1CCCO1)c1cn(-c2ccccc2)nc1-c1cccs1 (stereo unspecified)	9	-1.8
O=C(CSc1ccccn1)NCc1ccc2c(c1)OCO2	16	-0.6
CCC1SC(=NC(=O)c2cccs2)NC1=O (stereo unspecified)	7	-3.1
C=CCNc1nccc(C(F)(F)F)n1	.	0.3

An excerpt. The share of hits here may be higher or lower than overall.
